Bioassay records deposited in PubChem BioAssay by several laboratories.
UUG fidelity = modulators of yeast start codon fidelity, primary screen, whole organism, S. cerevisiae, single point, plate reader; activity score, % at 18.7 µM; S. cerevisiae UUG-firefly luciferase reporter, luminescence/redox ratio; actives 0.13% (n = 350,000);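 active = replicate mean at a twofold rise or more, about +100% in these data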;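 note: firefly luciferase made from a UUG start codon reports start codon fidelity; reporter light over untreated wells divided by growth signal over untreated wells; some hits fall short of that in this replicate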
eIF4H FP inh = human eIF4H binding inhibitors, primary screen, translation initiation inhibitor project, biochemical, uHTS, fluorescence polarization; Eukaryotic translation initiation factor 4H (Homo sapiens), Q15056; eIF4H fluorescence polarization binding assay; inhibition, % at 35 µM; actives 0.94% (n = 290,000); AID 2012, 2009;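 active = 50% or more with normal probe brightness, or confirmed in later tests; inconclusive = above 50% with abnormal brightness, or retests that disagree; inactive = below 50% or failed in later tests; about a fifth of its hits are not listed in these tables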;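 note: calls also rest on retests at 20 µM and on dose response follow-up; 0% = protein and probe with vehicle and 100% = probe without protein; strong numbers were not always called active; many hits fall short of the cut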
PABP polyA inh = PABP poly(A) RNA binding inhibitors, primary screen, biochemical, fluorescence polarization, uHTS; inhibition, % at 35 µM; actives 1% (n = 290,000); Polyadenylate-binding protein 1 (Homo sapiens), P11940;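 active = 50% or more with normal probe brightness, or confirmed in later tests; inconclusive = above 50% with abnormal brightness, or retests that disagree; inactive = below 50% or failed in later tests; about a fifth of its hits are not listed in these tables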;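 note: calls also rest on retests at 20 µM and on dose response follow-up; controls were probe without protein and protein plus probe with vehicle; some compounds called inactive have numbers as strong as hits; many hits fall short of the cut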
Target sequence (P11940 whole entry, looked up): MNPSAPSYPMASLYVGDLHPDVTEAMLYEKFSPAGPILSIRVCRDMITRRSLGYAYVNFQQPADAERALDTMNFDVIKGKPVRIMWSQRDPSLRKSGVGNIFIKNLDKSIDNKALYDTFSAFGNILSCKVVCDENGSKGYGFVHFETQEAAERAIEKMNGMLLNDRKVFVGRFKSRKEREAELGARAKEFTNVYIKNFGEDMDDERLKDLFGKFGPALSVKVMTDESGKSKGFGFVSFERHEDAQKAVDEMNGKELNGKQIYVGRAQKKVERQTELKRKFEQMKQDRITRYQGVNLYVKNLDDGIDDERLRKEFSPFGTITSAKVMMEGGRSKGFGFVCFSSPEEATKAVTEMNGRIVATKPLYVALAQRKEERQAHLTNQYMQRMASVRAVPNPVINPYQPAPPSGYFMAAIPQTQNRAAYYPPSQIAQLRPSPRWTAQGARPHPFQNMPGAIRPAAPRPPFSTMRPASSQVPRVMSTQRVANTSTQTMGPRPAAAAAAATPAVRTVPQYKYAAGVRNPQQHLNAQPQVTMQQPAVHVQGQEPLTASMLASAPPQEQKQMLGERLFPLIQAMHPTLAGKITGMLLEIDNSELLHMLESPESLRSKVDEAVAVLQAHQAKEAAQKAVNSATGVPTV
Env fusion inh = inhibitors of HIV-1 Env-driven cell-cell fusion, primary screen, HeLa-JRFL effector, CEM21 target cells, luciferase | inhibition, % at 12.3 µM | actives 1.1% (n = 360,000) | AID 651610, 2012;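 active = mean replicate inhibition score of at least 50 and every replicate individually at or above 50; inconclusive = only one of the two criteria met; inactive = mean below 50 and not all replicates reaching 50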;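 note: 0% = plate neutral controls and 100% = maraviroc near 300 nM; one replicate is shown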
Rce1 inh = yeast Rce1p protease inhibitors, primary screen, biochemical, fluorescence, cell-free homogeneous. CAAX prenyl protease 2 (Saccharomyces cerevisiae (strain ATCC 204508 / S288c)), Q03530. calls only. actives 0.27% (n = 290,000). yeast membranes, quenched prenylated peptide cleavage fluorescence. AID 2563, 2010;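 active = fall in fluorescence gain of 50% or more versus controls, with final raw signal at or below 3038400; inconclusive = same 50% fall but final raw signal above 3038400; inactive = fall in fluorescence gain under 50%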;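 note: plate controls were neutral control wells for no effect and wells lacking membranes for full effect; tested at 10 µM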
CSC inhib = cancer stem cell viability inhibitors, primary screen, luminescence; cancer stem cell-like cells viability; inhibition, % at 7.5 µM; actives 1.1% (n = 300,000);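 active = mean at 75% or more and at least half the replicates too; inconclusive = mean and replicates disagree; tested in HMLE shEcad cells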;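 note: 0% = median of negative and 100% = median of positive control wells; the first replicate is given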
MT1-MMP act inh = blockers of MT1-MMP proenzyme processing, primary screen, HT1080 RFP-PRO-GFP cells, GFP/RFP fluorescence; Matrix metalloproteinase-14 (Homo sapiens), P50281; GFP/RFP ratio fluorescence, overnight; percent of plate control window, DMSO zero; GFP/RFP ratio change, % at 20 µM; actives 0.061% (n = 360,000); AID 651647, 2012;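 active = GFP/RFP ratio change of at least 30% with cell ATP level not reduced by more than half and red fluorescence within 50% of control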; note: strong numbers were not always called active
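Material: RFP-PRO-GFP reporter HT1080 cells. Dosing: single-point 20 µM compound, 1% DMSO. Controls: DMSO and RFP-L50D-GFP cell wells. Timing: cells overnight before dosing, compound overnight, 37 °C, 5% CO2. Measure: GFP/RFP fluorescence ratio.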
MT1-MMP act inh RFP = further read-out of MT1-MMP act inh, marked with its call; RFP signal change, %; measured here: RFP expression control read;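 0 = vehicle wells; hits needed this value within 50% of zero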
Starred values were filed as active, the others as inactive; i = inactive; ? = inconclusive; . = no result given; & = joins results of further samples.

SMILES	UUG fidelity	eIF4H FP inh	PABP polyA inh	Env fusion inh	Rce1 inh	CSC inhib	MT1-MMP act inh	MT1-MMP act inh RFP
CN(C)CCNC(=O)c1cccc2c(-c3ccc(F)c(F)c3)coc12	-7	.	.	-11	.	.	4	3
CCOC(=O)C1CCN(Cc2cc(C(C)C)c(O)c(C(C)C)c2)CC1	.	-6	-2	4	i	-3	-2	-2
CC(=O)c1cccc(NS(=O)(=O)c2cc3c(cc2C)NC(=O)CO3)c1	-11	-8	-4	5	i	-13	-2	-1
Cc1ccccc1OCC(=O)NCCNC(=O)c1ccccn1	-4	-6	-6	-5	i	.	1	3
Cc1nc2ccc(S(=O)(=O)NCC(=O)NCc3ccc(Cl)cc3)cc2s1	-21	-3	4	5	i	-9	-1	0
Cc1onc(-c2ccccc2Cl)c1C(=O)N1C=CC(C(F)(F)F)=NCC1	.	-5	-11	.	i	-5	2	0
NC(=O)/C(=N\O)c1ccccc1	-12	-14	-5	-28	i	-11	-3	2
O=C(c1ccco1)N1CCN(c2ncnc3c2cnn3-c2ccccc2)CC1	-7	-6	-8	.	i	-9	8	-3
CCN1C(=NCCc2ccc([N+](=O)[O-])cc2)N[C@@H](c2ccccc2)[C@H](C(=O)OC)[C@H]1C	-14	.	.	-1	.	-4	-4	3
COC(=O)CN(c1ccccc1)S(=O)(=O)c1ccccc1	-14	5	2	.	i	6	5	0
COc1ccc(NC(=S)Nc2ccccn2)cc1	-27	-1	-5	-42	i	-1	-10	-8
COC(=O)c1cc(Br)ccc1N(Cc1cc(OC)cc(OC)c1)S(C)(=O)=O	-1	.	.	6	.	19	3	-1
Cc1cc(C)n(-c2ncccc2[N+](=O)[O-])n1	-3	-7	0	-2	i	-9	0	3
O=C1OCC/C1=C\OCCCO/C=C1\CCOC1=O	-16	-8	3	-2	i	11	2	5
COC(=O)c1nnn(-c2ccc(F)c(Cl)c2)c1C(=O)OC	-9	4	1	-6	i	.	-1	7
Nc1ncnc(NC2CCS(=O)(=O)C2)c1[N+](=O)[O-] (stereo not given)	-18	2	-7	3	i	-19	-11	-5
COCCNCCOc1ccccc1-c1ccccc1	-10	14	8	-44	i	10	-3	2
CN1C(=O)CSC1=Nc1cccc(Cl)c1	-3	-3	4	-3	.	-3	4	1
CC(NC(=O)CC1Sc2ccccc2NC1=O)c1ccccc1 (stereo not given)	5	-2	-12	1	i	5	6	2
CC(Sc1ncc(C(F)(F)F)cc1Cl)C(=O)NCC1CCCO1 (stereo not given)	.	-6	-4	6	i	-18	-1	1
Cc1cc(C(=O)COc2ccc3ccc(=O)oc3c2)c(C)n1C	.	1	4	4	i	-3	-4	-2
O=C(Nc1ccc2c(c1)CN(Cc1ccco1)CC2)C1CCCO1 (stereo not given)	-9	49	12	6	i	0	-6	-1
CC(=O)c1cccc(OCC(O)CN2CCN(S(=O)(=O)c3c(F)cccc3F)CC2)c1 (stereo not given)	-6	-1	3	20	i	-4	-4	-3
CCc1ncc(C(=O)c2ccc(OC)cc2)n1C	-5	-1	2	.	i	-11	7	4
CN(C(=O)c1cccc(NC(=O)Cc2cccc(NC(=O)C3CCCN(C(=O)c4ccccc4)C3)c2)c1)C1CC1 (stereo not given)	-2	.	.	-70	.	.	-1	-1
Nc1ccn([C@@H]2O[C@H](CNS(=O)(=O)c3cc4ccccc4s3)[C@@H](O)[C@H]2O)c(=O)n1	-13	.	.	4	.	.	0	1
CCN(C(=O)Cn1cc(C(=O)C(=O)N2CCOCC2)c2ccccc21)c1ccccc1	10	-6	7	-9	i	-4	-4	0
CC(/C=C/c1ccccc1)=N/NC(=O)C(O)c1ccccc1 (stereo not given)	-14	-6	-4	-19	i	24	1	3
O=C(NCC(=O)N1CCN(c2ccccc2F)CC1)c1cccs1	-9	-8	7	-261	i	-11	2	3
COc1ccc(C(C)=O)cc1Cn1c(C)c(C(=O)NCc2cccc(C)c2)sc1=O	-11	.	.	1	.	.	15	-1

A second format for some results above:
Under each structure – UUG fidelity	eIF4H FP inh	PABP polyA inh	Env fusion inh	Rce1 inh	CSC inhib	MT1-MMP act inh	MT1-MMP act inh RFP
- COc1ccc(C(C)=O)cc1Cn1c(C)c(C(=O)NCc2cccc(C)c2)sc1=O
    -11	.	.	1	.	.	15	-1
- CCN(C(=O)Cn1cc(C(=O)C(=O)N2CCOCC2)c2ccccc21)c1ccccc1
    10	-6	7	-9	i	-4	-4	0

(more compounds)
SMILES	UUG fidelity	eIF4H FP inh	PABP polyA inh	Env fusion inh	Rce1 inh	CSC inhib	MT1-MMP act inh	MT1-MMP act inh RFP
CCN(C(=O)COc1ncnc2scc(-c3ccc(F)cc3)c12)C1CCS(=O)(=O)C1 (stereo not given)	-11	1	-4	-55	i	-16	1	4
CC(Cc1cccs1)NC(=O)NC1CCCCC1 (stereo not given)	-20	-3	2	.	i	10	3	4
O=C(Nc1ccccc1C(=O)N1CCCCC1)c1ccccc1C(F)(F)F	29	1	-5	5	i	-16	-2	-3
CC(C)(Cc1nc2ccccc2[nH]1)C(=O)O	-23	-9	-1	-44	i	.	2	4
CCNc1nc2[nH]c(=O)c3c(c2s1)OC(N)=C(C#N)C3c1ccc(C)cc1 (stereo not given)	-18	?	80*	.	i	-10	-1	-1
CCN(CC#CCC(O)(c1ccccc1)C1CCCC1)C(C)C (stereo not given)	.	-5	-6	.	i	9	-1	7
COC(=O)CSc1nc(NC#N)nc(NC(C)C)n1	-13	-4	-7	.	i	1	3	7
NC(=O)NC(Cc1ccccc1)C(=O)Nc1ccc(S(N)(=O)=O)cc1 (stereo not given)	-15	0	-7	.	i	-2	2	2
Cc1ccc(S(=O)(=O)NC2(C(F)(F)F)NC(=O)N(c3ccc(F)cc3)C2=O)cc1 (stereo not given)	-3	7	5	12	i	.	-2	-1
Cc1ccc(C(=O)N2CCC3(CC2)Oc2ccc(F)cc2C(=O)C32CC(c3ccc(Cl)cc3)=NO2)s1 (stereo not given)	0	2	8	-19	i	5	.	.
CNC(C)C#Cc1ccc2oc3cc(C)c(C)cc3c(=O)c2c1 (stereo not given)	-24	.	.	22	i	44	3	-6
c1ccc(-c2cn(-c3ccccc3)c3ncnc(NCCCN4CCOCC4)c23)cc1	.	-11	-2	14	i	17	-17	-11
O=[N+]([O-])c1cc2c(c(CSc3ncccn3)c1)OCOC2	.	5	6	-28	i	-7	1	4
N#CC1=C(N)Oc2cc(N)ccc2C1c1ccsc1 (stereo not given)	.	14	-2	-20	i	-2	-1	4
O=C(COC(=O)C12CC3CC(CC(O)(C3)C1)C2)Nc1cccc(Br)c1	-3	.	.	2	.	.	1	3
COCCN(C(=O)CSc1nnc(-c2cccc(Cl)c2)n1N)c1c(N)n(CC(C)C)c(=O)[nH]c1=O	-12	.	.	8	.	.	-2	8
CC(C)OC(=O)c1nnc(Cc2ccc(F)cc2)o1	-9	-6	-6	0	i	-15	1	1
O=C(CC12CC3CC(CC(C3)C1)C2)Nc1ccc(C(=O)O)cc1	-17	-4	1	13	i	4	3	8
COc1ccc(CCN(C)C(=O)c2cc(-c3ccccc3)nc3ccccc23)cc1OC	6	2	2	7	i	-6	-3	-4
O=c1n(-c2ccccc2)c(=O)n(Cc2ccccn2)n1Cc1ccccn1	-2	-2	1	.	i	-2	-3	1
O=S(=O)([O-])C(c1ccccc1)[n+]1ccccc1 (stereo not given)	-18	.	.	-8	i	-1	4	10
Cc1ccc(C)c(OCCNc2ncccc2[N+](=O)[O-])c1	-2	-8	-8	-8	i	15	-6	-6
c1ccc2c(c1)ncn2CCn1cnc2ccccc21	-16	-10	2	-44	i	-7	4	7
C/C(=N/NC(=O)c1nnn(-c2nonc2N)c1-c1ccccc1)c1ccc2c(c1)OCO2	-15	5	4	-1	i	-13	0	-1
COc1cccc(NC(=O)c2cc(=O)c3ccccc3o2)c1	-31	10	8	-7	i	0	-1	2
CCn1c(=O)cc(SCC(=O)NCc2ccccn2)c2ccccc21	13	-1	2	9	i	-1	2	2
CCN(CCO)Cc1csc2c(Br)cccc12	6	-6	0	.	i	14	-7	-1
Cc1nn(-c2ccccc2)c(C)c1/C=N/n1c(-c2ccc(Cl)cc2)n[nH]c1=S	.	9	-11	8	i	6	1	-1
CCCOc1ccc(N2C(=O)CC(N(C(=O)c3ccco3)c3ccc(OCCC)cc3)C2=O)cc1 (stereo not given)	-15	-5	4	4	.	1	0	-2
COc1ccc(OC)c(-c2cc(C(=O)N3CCN(c4ccccc4)CC3)no2)c1	-1	-6	3	-2	i	28	2	3
Cc1cccc(NC(=O)CSCC(=O)NCc2cccc(C(F)(F)F)c2)c1	13	4	-1	-60	i	-4	1	0
CSc1ccccc1C(=O)N1CCCC(CNC(=O)c2ccc(F)cc2)C1 (stereo not given)	-9	2	9	-7	i	-16	-2	-1
Cc1csc(SCC(=O)O)n1	4	-3	17	.	i	1	6	6
C[C@H](CO)N1C[C@H](C)[C@@H](CN(C)C(=O)Nc2ccccc2)Oc2ncc(-c3ccc(C#N)cc3)cc2C1=O	0&-5&-5	.	.	-25	.	.	0	-1
Cc1cc(C)cc(NC(=S)N2CCN(Cc3ccccc3)CC2)c1	-16	-13	-5	3	i	-16	1	3
N#Cc1c(N)nc(-c2ccccc2)nc1-c1ccccc1	-15	6	-16	18	i	-12	4	-1
Oc1ccc2ccccc2c1N=Nc1ccccn1	-21	2	2	.	i	105*	11	-9
CCOC(=O)c1nccnc1C(=O)Nc1cccc(C(F)(F)F)c1	.	2	-15	-5	i	-7	2	4
Cc1ccc(S(=O)(=O)c2nc(-c3ccc(F)cc3)oc2SCC(N)=O)cc1	-10	-3	17	-101	i	-8	-2	-2
Cc1noc(C)c1C(=O)N1CCCC1	2	0	6	.	i	-4	2	3
CCOC(=O)CNC(=O)C(=O)c1c(O)[nH]c2ccccc12	33	5	-1	-50	i	-7	-5	2
CCOC(=O)C1CCN(C(=O)C2CCN(c3nc4ccc(OC)cc4s3)CC2)CC1	4	-4	-7	-56	i	-6	12	0
CC(=O)NC1CC2CCCC(C1)N2C(=O)Nc1ccccc1 (stereo not given)	6	-14	-2	-68	i	-16	2	3
COc1cc(OC)cc(C(=O)Nc2ccc(C(=O)c3ccncc3)cc2)c1	-16	2	-13	5	i	9	0	-2
Cc1cc(C)n(CC(O)COc2ccccc2C(=O)Nc2ccccc2)n1 (stereo not given)	-14	-10	4	-329	i	-3	5	4
Cc1cc(C)n(-c2ccc(C(=O)O)cc2)n1	.	1	-7	.	i	-15	-1	3
Nc1nc(NCCCN2CCOCC2)nc(Nc2ccccc2F)c1[N+](=O)[O-]	.	-11	0	-37	i	1	-9	0
O=C1c2ccccc2C(=O)N1Cc1nc(-c2ccccc2)no1	.	4	-2	5	i	6	-2	3
OC(c1cccc(Cl)c1)c1nc(-c2cc3ccccc3o2)cs1 (stereo not given)	-9	.	.	-81	.	.	4	-3
CC(C)(C)c1cc[n+](-c2[nH]c(=O)sc2/C=N/N=C(\[O-])c2cccnc2)cc1	-5	-3	13	-2	i	9	5	3
CC(C)C(c1nnnn1Cc1ccc(F)cc1)N1CCN(C2CCCCC2)CC1 (stereo not given)	-3	4	0	.	i	20	1	1
